Source: PubChem BioAssay
NPYLR7 agonist: activates Aedes aegypti NPYLR7 receptor; HEK293T NPYLR7/Galpha15, GCaMP6s calcium fluorescence; activation, % at 10 µM; 0.15% of 270,000 active; in the data active means activation above about 40%;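 further: 0% = vehicle and 100% = reference agonist at the receptor; some compounds past the cut are filed as inactive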
NPYLR7 agonist max-min: also measured in NPYLR7 agonist; calls as there; activation, %; measured here: Max-Min RFU normalised activation; some inactives read as strong as hits;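 span of the calcium signal over five minutes; 0% = vehicle and 100% = native peptide agonist; compound fluorescence can raise it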
An asterisk follows results filed as active; & = joins results of further samples. Not all compounds are listed. The share of hits here may be higher or lower than overall.

The opening six compounds (preview)
Below each SMILES – NPYLR7 agonist, NPYLR7 agonist max-min
(1) Cc1ccc(-n2ncc3c(C)nn(CC(=O)N4CCc5ccccc54)c(=O)c32)cc1C
    10, 6
(2) C=CCNc1nc(Nc2ccc(I)cc2)nc(OCC)n1
    0, 0
(3) Cc1nc(NC(=O)C2CC2)sc1Cc1ccccc1Cl
    -17&-3, -16
(4) CCCS(=O)(=O)N1CCCN(C)c2nc3ccccc3nc21
    2, 1
(5) CCOC(=O)c1ccc2c(c1)nc(SCc1c(F)ccc(C)c1F)n2Cc1ccccc1
    2, -4
(6) CCOc1c(CC)cnc2c1c(=O)n(CC(=O)N1CCCC1)c(=O)n2C
    -2, -1

The listing, from the first entry:
Below each SMILES – NPYLR7 agonist, NPYLR7 agonist max-min
(1) Cc1ccc(-n2ncc3c(C)nn(CC(=O)N4CCc5ccccc54)c(=O)c32)cc1C
    10, 6
(2) C=CCNc1nc(Nc2ccc(I)cc2)nc(OCC)n1
    0, 0
(3) Cc1nc(NC(=O)C2CC2)sc1Cc1ccccc1Cl
    -17&-3, -16
(4) CCCS(=O)(=O)N1CCCN(C)c2nc3ccccc3nc21
    2, 1
(5) CCOC(=O)c1ccc2c(c1)nc(SCc1c(F)ccc(C)c1F)n2Cc1ccccc1
    2, -4
(6) CCOc1c(CC)cnc2c1c(=O)n(CC(=O)N1CCCC1)c(=O)n2C
    -2, -1
(7) CCCCCC(C)NC(=O)C(NC(=O)c1ccco1)C(C)C (stereo unspecified)
    6, 5
(8) CC(C)(C)c1cc2nc(C(=O)O)cc(-c3ccccc3F)n2n1
    -9, -3
(9) CCOCCCn1c(C)cn2c3c(=O)n(C)c(=O)n(C)c3nc12
    14, 10
(10) COc1cc(-c2nc(CCc3ccccc3)nn2-c2ccccn2)ccn1
    -9, -11
(11) Clc1ccc(-c2nc(CSc3ncccn3)cs2)cc1
    3, 16
(12) Cc1ccc(-n2nnc3c(=O)n(CC(=O)NCc4ccc5c(c4)OCO5)cnc32)cc1C
    -3, -7
(13) CCOc1ccc(Br)cc1S(=O)(=O)N1CCN(CCO)CC1
    -3, -6
(14) NC(=O)c1ccc(NC(=O)CSc2nc3c(c(=O)n2Cc2ccccc2)SCC3)cc1
    2, -5
(15) COc1ccccc1-c1cc(-c2ccccc2)nc(SCC(N)=O)c1C#N
    -2, -10
(16) CC(c1cccc(-c2nccc3ncccc23)c1)N1CCCC1 (stereo unspecified)
    -2, -3
(17) CCc1cc(N2CCN(Cc3c(C)cc(C)cc3C)CC2)n2ncnc2n1
    22, 13
(18) Cc1cccc(C(=O)Nc2cc(C3CC3)nn2-c2nc(C)cc(=O)[nH]2)c1
    2, 1
(19) COc1ccc(C=CC(=O)c2ccc(N3CCCC3=O)cc2)c(OC)c1OC
    2, -4
(20) COc1ccc(/C=N\NC(=O)CSc2nnc(-c3ccccc3)n2-c2ccccc2)cc1OC
    -8, 2
(21) Cc1nccn1CCc1nc(N)nc(N)n1
    -1, -1
(22) O=C(c1cc(Cl)cc(Cl)c1)N1CCN(c2nccc(-c3ccc4c(c3)OCO4)n2)CC1
    5, 0
(23) CC1CC1c1ccc(CN(C(=O)NCc2nnc3n2CCC3)C2CC2)o1 (stereo unspecified)
    9, 5
(24) O=S(=O)(Nc1cc(F)cc(F)c1)c1ccc(N2CCCCCC2)nc1
    -11, -11
(25) CC(C)c1cc(N2CCOCC2)n2c(nc3ccccc32)c1C#N
    1, 3
(26) COc1ccc(-c2cn(-c3ccccc3)nc2C(=O)OC(C)C(=O)N2CCNC2=O)cc1OC (stereo unspecified)
    21, 24
(27) CCCCOc1ccc(-c2nc(C=Nc3ccc4ccccc4c3)c(O)o2)cc1
    -1, -7
(28) COC(=O)c1cc2n(n1)CCCN(C(=O)c1cc(C)[nH]c(=O)c1)C2
    -4, -8
(29) CCS(=O)(=O)Oc1cccc(CN(Cc2ccco2)S(=O)(=O)c2ccc(C(C)(C)C)cc2)c1
    -3, 8
(30) CCN(CC)C(=O)C1CCCN(C(=O)c2c(-c3ccccc3Cl)noc2C)C1 (stereo unspecified)
    -7, -7

The final four entries of the part before open the next one:
Below each SMILES – NPYLR7 agonist, NPYLR7 agonist max-min
(27) CCCCOc1ccc(-c2nc(C=Nc3ccc4ccccc4c3)c(O)o2)cc1
    -1, -7
(28) COC(=O)c1cc2n(n1)CCCN(C(=O)c1cc(C)[nH]c(=O)c1)C2
    -4, -8
(29) CCS(=O)(=O)Oc1cccc(CN(Cc2ccco2)S(=O)(=O)c2ccc(C(C)(C)C)cc2)c1
    -3, 8
(30) CCN(CC)C(=O)C1CCCN(C(=O)c2c(-c3ccccc3Cl)noc2C)C1 (stereo unspecified)
    -7, -7
(31) CC(C)N(CC(N)=O)c1ncnc2sc3c(c12)CCC3
    -2, -1
(32) NC1=NC(c2cc(Br)cs2)n2c(nc3ccccc32)N1 (stereo unspecified)
    0, 15
(33) O=C(CCc1nc(-c2ccccc2F)no1)N1CCC[C@H]1CN1CCCC1
    18, 15
(34) Cc1cc(C)c(C)c(S(=O)(=O)N2CCC(C(=O)Nc3nnc(C(C)C)s3)CC2)c1C
    7, 11
(35) CCN(CC)c1cc(-c2ccccc2)nc(SCc2cccc(C(=O)NCCN(C)C)c2)n1
    10, 6
(36) CCNC(=O)CCC(=O)Nc1ccc(OC2CCCC2)c(F)c1
    -3, -3
(37) COc1ccc(Cn2ccnc2CN(CCN2CCOCC2)S(=O)(=O)c2ccc(C)cc2)cc1
    17, 18
(38) Cc1ccc(NC(=O)Nc2cccc3c2CCN(C(=O)[C@H]2CCC(=O)N2)C3)cc1
    4, 1
(39) CC(C)CCNC(=O)C1(C)CCN1Cc1ccc2c(c1)OCCO2 (stereo unspecified)
    10, 4
(40) O=C(c1cccs1)N(CCn1cccn1)c1nc2c(Cl)cccc2s1
    -16, -17
(41) CN(C(=O)c1ccc(N2CC3CC(C2)c2cccc(=O)n2C3)c(NC(=O)c2ccc(C(C)(C)C)cc2)c1)C1CCCCC1 (stereo unspecified)
    -4, 4
(42) CC#CC(=O)N1CCC(CCC(=O)Nc2cccc(C)c2)CC1
    2, 0
(43) CSCCC(=O)n1nc(-c2cccc(OC(F)F)c2)nc1N
    2, 2
(44) COC(=O)C1=C(C)N=c2s/c(=C\c3c(F)cccc3Cl)c(=O)n2C1c1cccs1 (stereo unspecified)
    1, -9
(45) Cc1cccc(N2CCN(CC(=O)N(C)Cc3c(C)noc3C)CC2)c1
    -7, -10
(46) COCCCN(C(=O)NCc1cccc(F)c1)C1CCN(C)CC1
    31, 16
(47) CCOc1ccc(NC(=O)c2ccc(Br)s2)cc1
    8, 1
(48) CC1=NC2=C(C(=O)CC(c3ccccc3)C2)C(c2ccc([N+](=O)[O-])cc2)C1C(=O)OCCc1ccccc1 (stereo unspecified)
    3, -1
(49) Cc1ccc(S(=O)(=O)NC(=O)C2(C)CCN2C(=O)CCC2CCCC2)nc1 (stereo unspecified)
    6, 3
(50) CN(CC1CCN(CCc2ccccc2F)CC1)C(=O)c1ccc2ncccc2c1
    4, 1
(51) O=C(Cc1ccccc1)Nc1ccc(N2CCCC2)c(C(=O)NCCc2ccccc2)c1
    2, 2
(52) CCCC(=O)OCC(O)CN(Cc1nc2sc3c(c2c(=O)[nH]1)CCC3)Cc1ccco1 (stereo unspecified)
    3, 7
(53) CC1=C(c2ccc(C)cc2)S(=O)(=O)N=C1Nc1ccc(C)cc1C
    -1, -3
(54) COc1ccc(-c2c(C)c3ccc4c(c3oc2=O)CN(C2CC2)CO4)cc1
    -3, -12
(55) COc1cccc(N2CC(C(=O)NCc3cc(-c4ccc(F)cc4F)on3)CC2=O)c1 (stereo unspecified)
    2, -2
(56) O=C(CCn1cncn1)N1CCCC(N2CCN(Cc3ccc4c(c3)OCO4)CC2)C1 (stereo unspecified)
    3, 3
(57) O=C(Nc1nnc(-c2ccc(Br)cc2)s1)C1CCCN1C(=O)Nc1ccccc1C(F)(F)F (stereo unspecified)
    -3, -1
(58) Cc1ncc([N+](=O)[O-])n1CCNC(=O)C1=C(C(=O)O)CCC1
    1, -1
(59) COC(=O)C1=C(C)N(C)C(=O)NC1c1ccccc1OC (stereo unspecified)
    -2, -8
(60) CC(C)NC(=O)NC(C)C
    2, 9
(61) Cc1cc(C)n(-c2cc(NCCNS(=O)(=O)c3ccccc3Cl)ncn2)n1
    -8, -12
(62) CCOCc1c(C(=O)N2CCNC(=O)C2)oc2ccccc12
    13, 10
(63) CCc1cc2c(=O)c(-c3ccc4c(c3)OCO4)c(C)oc2cc1OC1OC(CO)C(O)C(O)C1O (stereo unspecified)
    1, -4
(64) Cc1cnc(C)c(N2CCC3(CCCN(C)CC3)CC2)n1
    -8, -15
(65) Cc1ccccc1C(C(C)C)N(C)C(=O)CSCC(N)=O (stereo unspecified)
    1, 0
(66) O=C(NCCSCc1ccco1)c1ccc(-c2cc(-c3cccc4ccccc34)[nH]n2)cc1
    -3, 6
(67) COc1ccccc1N(c1nc(-c2ccccc2)cs1)C(C)C(=O)O (stereo unspecified)
    27, 13
(68) COc1ccc(-c2nc(CSc3nc(C)cs3)cs2)cc1OC
    6, 6
(69) CCC(=O)NC1Cc2ccccc2C(c2ccccc2)C1 (stereo unspecified)
    -11, -14
(70) CC(C)c1ccc(C(=O)NC2CC(C)(C)NC(C)(C)C2)cc1
    2, 0
(71) Cc1ccc(C(C)C(=O)NC(C)C(N)=O)s1 (stereo unspecified)
    1, -3
(72) COCCc1noc(CN2CCCCC2Cn2cc(C)cn2)n1 (stereo unspecified)
    5, 2
(73) COc1ccc(C2SCC(=O)N2CC(=O)N(C)C)cc1OC (stereo unspecified)
    10, 24
(74) CN1CC2(CCCN(C(=O)c3ccc4ncsc4c3)CC2)OC1=O (stereo unspecified)
    7, -3
(75) O=C(Nc1nnnn1/N=C\c1ccccc1F)c1ccc(F)cc1
    -1, -3
(76) COc1ccccc1-n1c(SCc2ccc(C(=O)N3CCOCC3)cc2)nnc1-c1cccs1
    -11, 0
(77) CC(C)c1cnc2c(c1SCC(=O)N1CCCC1)c(=O)n(C)c(=O)n2C
    -3, 4
(78) Cc1nc2n(n1)C(c1ccc(Cl)cc1)CC(c1ccc(Cl)cc1)=N2 (stereo unspecified)
    -3, 7
(79) CCOc1ccc(-c2cc3c(=O)n(CC(=O)N4CCCc5ccccc54)ccn3n2)cc1
    5, 1
(80) CCOc1ccc2c(c1)sc(=N)n2Cc1ccc(Cl)cc1
    6, 5
(81) N#CC1(NC(=O)c2csc(-c3cccc(Cl)c3)n2)CCC1
    5&-1, 3&-2
(82) CCN(Cc1ccc(C)o1)C(=O)[C@@H]1C[C@@H](NC(=O)c2ccccc2Cl)CN1
    3, 2
(83) CC(C(=O)N1CCC(N2CCC(C(=O)NC3CC3)CC2)CC1)n1cnc2ccccc21 (stereo unspecified)
    -7, -8
(84) Cc1sc2ncn3ncnc3c2c1C
    1, 9
(85) COc1ccc(CN(C)CC2CCCN(CCc3ccc(Cl)cc3)C2)cc1OC (stereo unspecified)
    16, 6
(86) CCc1ccc(-c2nccn2[C@@H](Cc2ccccc2)C(N)=O)nc1
    8, 5
(87) O=C(NC1CCCC1)C1CCN(S(=O)(=O)N2CCOCC2)CC1
    15, 9
(88) CCc1ccccc1NC(=O)c1cccn(OCc2cccc(Cl)c2)c1=O
    14, 19
(89) COc1ccc(C(=O)Nc2ccc(-n3nc(OC)nc3-c3cccs3)cc2)cc1
    27, 25
(90) O=C(CSc1nc(=O)n(CCCO)c2c1CCC2)Nc1cccc(F)c1
    -10, -18

3 compounds picked at random from the list so far, as already listed:
Below each SMILES – NPYLR7 agonist, NPYLR7 agonist max-min
(64) Cc1cnc(C)c(N2CCC3(CCCN(C)CC3)CC2)n1
    -8, -15
(29) CCS(=O)(=O)Oc1cccc(CN(Cc2ccco2)S(=O)(=O)c2ccc(C(C)(C)C)cc2)c1
    -3, 8
(69) CCC(=O)NC1Cc2ccccc2C(c2ccccc2)C1 (stereo unspecified)
    -11, -14

Compounds from the list above with a nitro group on carbon:
Below each SMILES – NPYLR7 agonist, NPYLR7 agonist max-min
(48) CC1=NC2=C(C(=O)CC(c3ccccc3)C2)C(c2ccc([N+](=O)[O-])cc2)C1C(=O)OCCc1ccccc1 (stereo unspecified)
    3, -1
(58) Cc1ncc([N+](=O)[O-])n1CCNC(=O)C1=C(C(=O)O)CCC1
    1, -1

(further entries)
Below each SMILES – NPYLR7 agonist, NPYLR7 agonist max-min
(91) CCCN(CC(F)F)C(=O)c1sccc1S(=O)(=O)C(F)F
    -4, -11
(92) CC(C)CNc1ncnc2c1c(-c1ccccc1)cn2-c1ccccc1
    3, 3
(93) COc1ccc(CN2CCN(C(=O)NCc3ccc(C)cc3)CC2)cc1F
    -3, -6
(94) N#CCN1CCNCC1
    -2, 5
(95) C=C(C)CN(CC)C(=O)C=Cc1ccc(OC)c(S(=O)(=O)N2CCCCC2)c1
    0, 1
(96) COc1ccc(C(=O)N2CCc3onc(-c4ccc(F)c(F)c4)c3C2)cc1F
    4, 1
(97) O=C(NC1CCN(c2ccccc2C(=O)N2CCN(C3CCCCCC3)CC2)CC1)c1ccc(F)cc1F
    25, 31
(98) COc1ccc2c(=O)c3c(=O)n(-c4ccc(C)cc4)c(C(C)C)nc3oc2c1
    11, 7
(99) CCOP(=O)(Cc1ccc(NC(=O)CO[C@H]2C[C@@H](C)CC[C@@H]2C(C)C)cc1)OCC
    -13, -20
(100) CN1CC2(CCCN(C(=O)Cn3cc(C(N)=O)c4ccccc43)C2)OC1=O (stereo unspecified)
    9, 7
(101) Cc1cc(C)c(NC(=O)Nc2c[nH]c3ccccc23)c(C)c1
    3, -3
(102) CCOc1ccc(-n2c(=O)c3c4c(sc3n(CC(=O)NC(C)CC)c2=O)CCCCC4)cc1 (stereo unspecified)
    4, 3
(103) Cc1nc2scc(C)n2c(=O)c1NC(=O)c1ccccc1Br
    6, 1
(104) COc1ccccc1/C=C/C=c1\sc2nc(=O)c(Cc3ccc(F)cc3)nn2c1=O
    24, 29
(105) COCC(=O)Nc1ccc(N2CCN(S(=O)(=O)c3cccc(OC)c3)CC2)nc1
    18, 23
